PINK1 expr mod: PINK1 expression modulation; hit rate 0.2% among 410,000; PINK1 immunofluorescence, high-content cytometry, 24 h; Potency, µM (series often up to 76.6 µM), without a hit: top-dose activation (PINK1 increase), most hits filed as activators; active = well fitted activation curve with a large enough effect; inconclusive = small, poorly fitted or top-dose-only effect; inactive = flat fitted curve, though single readings scatter; cell line not stated here;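 also: potency is read from the fitted curve at half-maximal effect; % of control where 0% means no effect; nearly all actives have a fitted effect of over 65% in size; a mitochondrial uncoupler was the plate control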
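Stable cell line treated 24 h with compounds at 5 concentrations (CCCP controls), then fixed and immunostained for PINK1 plus nuclear and cell stains; PINK1 immunofluorescence quantified by laser-scanning microplate cytometry.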
TRPML1 blocker: blocks the human TRPML1 channel. AID 624415. Q9GZU1. TRPML1-inducible cells, Ca2+ dye fluorescence, FDSS; stronger effect = lower value; inhibition of EC80 agonist-evoked calcium signal. activity change, negative = inhibition, % (concentration not given with the values). hit rate 0.02% among 390,000; in the data active means activity change below about -50%; inconclusive means about -30% to -50%; inactive means above about -30%;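 also: stimulus is agonist 54-4 at its EC80 concentration; % is scaled to controls: 0 for no effect and ±100 for the full control effect; compound concentration not given in the record; the text of the record puts the active cut at -80%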
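TRPML1-DL cells, Tet-induced overnight (~16 h, 37 °C) at 1,500 cells/well, were loaded with Ca8 no-wash dye plus quencher for 45-90 min at room temperature. Compounds were pinned during FDSS kinetic reading; agonist 54-4 at EC80 (4 uM final) then added.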
TRPML1 agonist: human mucolipin-1 channel agonism | Q9GZU1 | TRPML1-expressing cells, Ca2+ dye fluorescence, FDSS; host cell line not named in the record; reference of the full effect not given here | activation, % (no concentration beside the values) | hit rate 0.12% among 410,000 | AID 624414; in the data active = activation above about 50%; inconclusive = about 30% to 50%; inactive = below about 30%; also: 0% is about no effect; the text of the record puts the active cut at 80%
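In this qHTS format, compounds were pin-transferred onto Ca8-dye-loaded TRPML1-DL cells induced with Tet overnight, and intracellular Ca2+ fluorescence was recorded kinetically for 110 s after a 10 s baseline. A subsequent 4uM final 54-4 (EC80) addition followed by a second 110 s read served as the antagonist phase.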
D2 ag: agonists of human D2 dopamine receptor (beta-arrestin). P14416. hit rate 0.084% among 360,000. DiscoveRx PathHunter D2 beta-arrestin, luminescence, 90 min; 100% = 57 uM dopamine signal. AID 624465. activation, % (concentration not given with the values); in the data active = activation above about 40%; inconclusive = about 15% to 40%; inactive = below about 15%; also: compound concentration not given in the record; the text of the record calls up to 30% inactive
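Agonist mode: compounds alone added to overnight-plated D2 PathHunter cells for 90 min at 37 C, with 57 uM final dopamine (EC100) defining full response. Beta-arrestin recruitment detected by chemiluminescent reagent, read after 1 h at ambient temperature.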
Six1-Eya2 inh: inhibitors of human Six1/Eya2 interaction; AlphaScreen GST-Six1/His-Eya2 binding, biochemical; stronger effect = lower value; control for the full effect not named in the record; activity change, % (test concentration not listed); hit rate 0.56% among 360,000; AID 651725; in the data active = activity change below about -65%; inconclusive = about -30% to -65%; inactive = above about -30%; also: % is scaled to controls: 0 for no effect and ±100 for the full control effect; compound concentration not given in the record
Target sequence (O00167 whole entry, looked up): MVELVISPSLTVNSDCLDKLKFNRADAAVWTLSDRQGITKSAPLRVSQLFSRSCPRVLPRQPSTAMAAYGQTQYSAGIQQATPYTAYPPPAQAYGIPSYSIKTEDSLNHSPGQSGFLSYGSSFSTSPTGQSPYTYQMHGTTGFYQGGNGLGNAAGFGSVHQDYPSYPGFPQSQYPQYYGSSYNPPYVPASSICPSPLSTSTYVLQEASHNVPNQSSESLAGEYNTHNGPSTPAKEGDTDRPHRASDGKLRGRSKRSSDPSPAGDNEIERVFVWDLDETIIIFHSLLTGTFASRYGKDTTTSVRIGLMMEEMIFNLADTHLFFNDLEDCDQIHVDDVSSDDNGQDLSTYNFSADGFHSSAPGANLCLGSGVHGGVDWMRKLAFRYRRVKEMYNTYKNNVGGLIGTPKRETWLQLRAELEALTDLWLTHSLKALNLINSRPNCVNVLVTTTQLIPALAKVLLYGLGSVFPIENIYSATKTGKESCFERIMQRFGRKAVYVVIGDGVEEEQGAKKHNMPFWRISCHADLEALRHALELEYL
Target sequence (Q15475 whole entry, looked up): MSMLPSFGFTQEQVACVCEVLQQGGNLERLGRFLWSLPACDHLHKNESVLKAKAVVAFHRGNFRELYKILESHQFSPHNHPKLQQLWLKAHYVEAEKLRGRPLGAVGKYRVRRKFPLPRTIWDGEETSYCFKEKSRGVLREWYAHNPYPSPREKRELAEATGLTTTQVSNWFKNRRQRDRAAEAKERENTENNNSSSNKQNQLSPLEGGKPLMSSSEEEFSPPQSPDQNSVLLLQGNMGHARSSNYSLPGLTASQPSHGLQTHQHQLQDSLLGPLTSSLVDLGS
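Six1/Eya2 binding was read as AlphaScreen signal after compounds were pinned into GST-Six1 plus His-tagged Eya2 (5X stock 250/500 nM) in pH 8.0 Tris/NaCl/TCEP buffer, beads added, then incubated 1 h, 37 C, dark.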
D2 PAM: potentiates the human D2 dopamine receptor allosterically; potentiation, % (no concentration beside the values); hit rate 0.23% among 360,000; DiscoveRx D2 beta-arrestin cells, luminescence, 90 min; 100% = 57 uM dopamine signal; AID 624464; active = potentiation of 50% or more; inconclusive = 30% to 50%; inactive = 30% or less;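 also: compound concentration not given in the record; tested on top of an EC20 dose of dopamine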
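D2 cells co-treated with compound plus 50 nM dopamine (EC20) for 90 min at 37 deg C to detect potentiation. Beta-arrestin recruitment was read as enzyme-fragment luminescence after 1 h at ambient temperature. Full response was set by 57 uM dopamine.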
The depositor's hits bear a star; [ ] = dose if it differs, or a comment.

How did COc1ccccc1NC1=NC(C)(C)N=C(N)N1 do in these assays?
PINK1 expr mod: -0.9%; TRPML1 blocker: 69; TRPML1 agonist: 0.0; D2 ag: -2.5; Six1-Eya2 inh: -3; D2 PAM: -3

Results for Cc1cc(=O)oc2cc3oc(=O)cc(C)c3cc12 ?
PINK1 expr mod: -1.1%; D2 ag: 0.6; Six1-Eya2 inh: 2; D2 PAM: -1

Results for CC(=O)Oc1ccc(CC(C(=O)O)N2C(=O)c3ccccc3C2=O)cc1 (stereo unspecified) ?
PINK1 expr mod: -1.1%; TRPML1 blocker: -1; TRPML1 agonist: -0.7; D2 ag: -0.2; Six1-Eya2 inh: -1; D2 PAM: -8

Results for O=C(c1ccc(Cl)cc1)C1CCN(Cc2ccccc2)CC1 ?
PINK1 expr mod: 4.5%; D2 ag: -2.8; Six1-Eya2 inh: 13; D2 PAM: -78

Results for COc1cccc(N2CC(C(=O)OC(C)C(=O)c3ccccc3)CC2=O)c1 (stereo unspecified) ?
PINK1 expr mod: 27%[38.3 µM]; TRPML1 blocker: 1; TRPML1 agonist: -0.1; D2 ag: -2.1; Six1-Eya2 inh: -3; D2 PAM: -9

How did CC1CCN(C(=S)Nc2ccc(F)cc2)CC1 do in these assays?
PINK1 expr mod: 1.2%; TRPML1 blocker: inconclusive; TRPML1 agonist: 0.0; D2 ag: -2.5; Six1-Eya2 inh: -15; D2 PAM: 16

Results for Cc1ccc([N+](=O)[O-])cc1N=Nc1c(-c2ccc([N+](=O)[O-])cc2)[nH]n(C(N)=S)c1=O ?
PINK1 expr mod: 2.8µM*; TRPML1 blocker: 23; TRPML1 agonist: -0.1; D2 ag: -9.7; Six1-Eya2 inh: -2; D2 PAM: -6

How did CCOC(=O)C1(CC2CCCCO2)CCN(Cc2nccn2-c2cccc(C)c2)CC1 (stereo unspecified) do in these assays?
PINK1 expr mod: 1.2%; TRPML1 blocker: -7; TRPML1 agonist: -0.1; D2 ag: -3.4; Six1-Eya2 inh: 0; D2 PAM: -12

Results for CCOC(=O)Nc1ccc2nc3n(c(=O)c2c1)CCCCC3 ?
PINK1 expr mod: 0.0%; TRPML1 blocker: 4; TRPML1 agonist: -0.2; D2 ag: 0.2; Six1-Eya2 inh: 0; D2 PAM: 0

How did Cc1nc(SCC(=O)NCC2CCCO2)c2c(C)c(C)sc2n1 (stereo unspecified) do in these assays?
PINK1 expr mod: 0.1%; TRPML1 blocker: -3; TRPML1 agonist: -0.3; D2 ag: 0.8; Six1-Eya2 inh: -3; D2 PAM: -4

How did O=C(CC(c1ccccc1)c1ccccc1)Nc1ccc(C(=O)O)cc1 do in these assays?
PINK1 expr mod: -0.6%; D2 ag: -2.3; Six1-Eya2 inh: 1; D2 PAM: 4

What do the screens show for `COc1ccc(CN(C)C(C)C(=O)Nc2cccc3ccccc23)cc1` (stereo unspecified)?
PINK1 expr mod: 3.6%; TRPML1 blocker: 6; TRPML1 agonist: 1.7; D2 ag: -1.5; Six1-Eya2 inh: -4; D2 PAM: -19

Results for NS(=O)(=O)c1cc2c(cc1C(F)(F)F)NCNS2(=O)=O ?
PINK1 expr mod: 0.4%; TRPML1 blocker: 13; TRPML1 agonist: 0.3; D2 ag: 5.6; Six1-Eya2 inh: 1; D2 PAM: -1

Results for O=c1cccc2n1Cc1cc3ccccc3nc1-2 ?
PINK1 expr mod: -1.1%; TRPML1 blocker: 20; TRPML1 agonist: 0.0; D2 ag: -3.8; Six1-Eya2 inh: -7; D2 PAM: -2

What do the screens show for `O=C(NCC1CCCO1)c1cc2ccccc2cc1O` (stereo unspecified)?
PINK1 expr mod: -0.6%; TRPML1 blocker: -5; TRPML1 agonist: 1.9; D2 ag: inconclusive; Six1-Eya2 inh: 21; D2 PAM: 5

Results for O=C(NC1CCCCC1)C1CCN(c2cnccn2)CC1 ?
PINK1 expr mod: 0.9%; TRPML1 blocker: 1; TRPML1 agonist: -0.8; D2 ag: -0.9; Six1-Eya2 inh: 3; D2 PAM: -12

How did CC(=O)N1CCc2cc(S(=O)(=O)NC(CC(C)C)C(=O)NCCc3ccc(C)cc3)ccc21 (stereo unspecified) do in these assays?
PINK1 expr mod: 2.8%; TRPML1 blocker: -12; TRPML1 agonist: -1.3

How did CCN(CC)C(=O)c1ccccc1NC(=O)c1cccc(S(=O)(=O)N(CC)CC)c1 do in these assays?
PINK1 expr mod: 3.3%; TRPML1 blocker: -16; TRPML1 agonist: -0.7; D2 ag: -1.9; Six1-Eya2 inh: 7; D2 PAM: -12

Results for CN(CCCNC(=O)C1CCC(=O)N1Cc1ccccc1Cl)c1ccccc1 (stereo unspecified) ?
PINK1 expr mod: -3.6%[38.3 µM]; TRPML1 blocker: -2; TRPML1 agonist: -0.4; D2 ag: 0.2; Six1-Eya2 inh: -5; D2 PAM: -5

Results for Cc1ccc(-c2cc3c(nn2)-c2ccccc2C3=O)cc1 ?
PINK1 expr mod: 1.3%; D2 ag: -26; Six1-Eya2 inh: -14; D2 PAM: -59

Random excerpt: 3 compounds from above, in no set order.
Results for O=c1cccc2n1Cc1cc3ccccc3nc1-2 ?
PINK1 expr mod: -1.1%; TRPML1 blocker: 20; TRPML1 agonist: 0.0; D2 ag: -3.8; Six1-Eya2 inh: -7; D2 PAM: -2

How did O=C(CC(c1ccccc1)c1ccccc1)Nc1ccc(C(=O)O)cc1 do in these assays?
PINK1 expr mod: -0.6%; D2 ag: -2.3; Six1-Eya2 inh: 1; D2 PAM: 4

Results for NS(=O)(=O)c1cc2c(cc1C(F)(F)F)NCNS2(=O)=O ?
PINK1 expr mod: 0.4%; TRPML1 blocker: 13; TRPML1 agonist: 0.3; D2 ag: 5.6; Six1-Eya2 inh: 1; D2 PAM: -1

(more compounds)
Results for COCCNC(=S)N(CCc1c(C)[nH]c2ccccc12)Cc1ccco1 ?
PINK1 expr mod: 4.3%; TRPML1 blocker: 16; TRPML1 agonist: 1.5; D2 ag: 0.9; Six1-Eya2 inh: -13; D2 PAM: -2

Results for COc1ccc(O)c(-c2cc(-c3ccc(F)cc3)n[nH]2)c1 ?
PINK1 expr mod: 3.0%; TRPML1 blocker: 8; TRPML1 agonist: 1.2; D2 ag: 3.6; Six1-Eya2 inh: -10; D2 PAM: 3

Results for O=C(NNC1=Nc2cccc3cccc1c23)c1ccccc1Br ?
PINK1 expr mod: inconclusive; TRPML1 blocker: -16; TRPML1 agonist: 0.4; D2 ag: -4.1; Six1-Eya2 inh: 1; D2 PAM: -29

What do the screens show for `CCOc1ccc(N(CC(=O)NC2CCC(C)CC2)S(=O)(=O)c2c(C)noc2C)cc1` (stereo unspecified)?
PINK1 expr mod: 1.1%; TRPML1 blocker: 12; TRPML1 agonist: -0.3; D2 ag: -1.1; Six1-Eya2 inh: 2; D2 PAM: -6

What do the screens show for `CCOc1ccc(NS(=O)(=O)c2cc(NC(=O)CCC(=O)c3cccs3)ccc2Cl)cc1`?
PINK1 expr mod: 1.6%; TRPML1 blocker: -5; TRPML1 agonist: 0.9; D2 ag: 6.8; Six1-Eya2 inh: -21; D2 PAM: -2

What do the screens show for `CCCCOc1ccccc1C1NC(=O)NC(C)=C1C(=O)OCCOCC` (stereo unspecified)?
PINK1 expr mod: -1.4%[38.3 µM]; TRPML1 blocker: 11; TRPML1 agonist: 0.9; D2 ag: -1.1; Six1-Eya2 inh: 0; D2 PAM: -7

Results for COc1ccc(NC(=O)N2CCCC2C(=O)Nc2ccc(C)c(Cl)c2)cc1 (stereo unspecified) ?
PINK1 expr mod: 11%; TRPML1 blocker: 10; TRPML1 agonist: 0.8; D2 ag: -2.5; Six1-Eya2 inh: 6; D2 PAM: -3

How did COCCCNS(=O)(=O)c1ccc2c(c1)CCN2C(C)=O do in these assays?
PINK1 expr mod: -0.8%; TRPML1 blocker: 25; TRPML1 agonist: 3.3; D2 ag: -1.6; Six1-Eya2 inh: 7; D2 PAM: 7

Results for O=C(Nc1nc2ccccc2[nH]1)c1ccc(F)cc1 ?
PINK1 expr mod: 2.7%[38.3 µM]; TRPML1 blocker: -3; TRPML1 agonist: 0.8; D2 ag: -2.7; Six1-Eya2 inh: -10; D2 PAM: 1

How did CS(=O)(=O)Nc1ccccc1C(=O)OCC(=O)NC1CC1 do in these assays?
PINK1 expr mod: -1.4%; TRPML1 blocker: -9; TRPML1 agonist: 0.4; D2 ag: -6.9; Six1-Eya2 inh: 12; D2 PAM: -4

How did CCOC(=O)C1(Cc2ccccc2)CCCN(C2CCN(C(C)=O)CC2)C1 (stereo unspecified) do in these assays?
PINK1 expr mod: 3.2%; TRPML1 blocker: 14; TRPML1 agonist: 0.0; D2 ag: -1.9; Six1-Eya2 inh: 1; D2 PAM: -3

What do the screens show for `COCCNC(=S)c1ccc(OC)cc1`?
PINK1 expr mod: 0.4%; TRPML1 blocker: 4; TRPML1 agonist: -0.6; D2 ag: 4.7; Six1-Eya2 inh: -16; D2 PAM: -6

Results for COc1ccc(CNC(=O)c2cc3cc(S(=O)(=O)N4CCCCC4)ccc3n2C)c(OC)c1 ?
PINK1 expr mod: 0.1%; TRPML1 blocker: -1; TRPML1 agonist: 0.8

Results for CCOC(=O)c1c(N/N=C/c2ccncc2)n[nH]c1C ?
PINK1 expr mod: 2.1%; TRPML1 blocker: -20; TRPML1 agonist: -0.2; D2 ag: -1.9; Six1-Eya2 inh: -2; D2 PAM: 3

What do the screens show for `COc1cccc(CN(CC(=O)NCc2ccc(F)cc2)C(=O)c2ccco2)c1`?
PINK1 expr mod: -0.1%; TRPML1 blocker: -9; TRPML1 agonist: -0.3; D2 ag: -3.5; Six1-Eya2 inh: 2; D2 PAM: -3

Results for Cc1ccc(Cn2nnc3c(=O)n(Cc4cc(C)ccc4C)cnc32)cc1 ?
PINK1 expr mod: -4.4%[38.3 µM]; TRPML1 blocker: -9; TRPML1 agonist: 0.0; D2 ag: 0.5; Six1-Eya2 inh: 0; D2 PAM: 1

How did CCOC(=O)c1ccccc1NC(=O)CSc1ccc(-c2sc(-c3ccccc3)nc2C)nn1 do in these assays?
PINK1 expr mod: -0.3%; TRPML1 blocker: -8; TRPML1 agonist: 0.5

Results for O=C(NCC(=O)N1CCN(c2ccccc2O)CC1)c1cccs1 ?
PINK1 expr mod: -1.2%; TRPML1 blocker: 9; TRPML1 agonist: -0.2; D2 ag: 2.0; Six1-Eya2 inh: -3; D2 PAM: -2

How did C=CCN(Cc1nc(-c2cc(OC)ccc2OC)oc1C)C1CCS(=O)(=O)C1 (stereo unspecified) do in these assays?
PINK1 expr mod: -0.7%; TRPML1 blocker: 27; TRPML1 agonist: -0.3; D2 ag: 1.6; Six1-Eya2 inh: -2; D2 PAM: -2

Results for O=C(Nc1nncs1)Oc1ccccc1 ?
PINK1 expr mod: -0.1%; TRPML1 blocker: -1; TRPML1 agonist: -0.8; D2 ag: -4.7; Six1-Eya2 inh: 8; D2 PAM: -1
